Assay outcomes: PubChem, Broad Institute
MLL AF4-AF9 inh: blocks AF4 peptide binding to human AF9; P42568; AlphaScreen, biotin-AF4 peptide binding to FLAG-AF9; inhibition, % at 10 µM; 350,000 compounds, 0.47% hits; AID 651704;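 active = every replicate reaching a set inhibition limit, whatever the replicate mean, cut at about 25% in these data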;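 note: 0% = plate neutral control median and 100% = total signal loss; the record names both 10 and 1 µM as test concentration; the first replicate is given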
Target sequence (P42568 whole entry, looked up): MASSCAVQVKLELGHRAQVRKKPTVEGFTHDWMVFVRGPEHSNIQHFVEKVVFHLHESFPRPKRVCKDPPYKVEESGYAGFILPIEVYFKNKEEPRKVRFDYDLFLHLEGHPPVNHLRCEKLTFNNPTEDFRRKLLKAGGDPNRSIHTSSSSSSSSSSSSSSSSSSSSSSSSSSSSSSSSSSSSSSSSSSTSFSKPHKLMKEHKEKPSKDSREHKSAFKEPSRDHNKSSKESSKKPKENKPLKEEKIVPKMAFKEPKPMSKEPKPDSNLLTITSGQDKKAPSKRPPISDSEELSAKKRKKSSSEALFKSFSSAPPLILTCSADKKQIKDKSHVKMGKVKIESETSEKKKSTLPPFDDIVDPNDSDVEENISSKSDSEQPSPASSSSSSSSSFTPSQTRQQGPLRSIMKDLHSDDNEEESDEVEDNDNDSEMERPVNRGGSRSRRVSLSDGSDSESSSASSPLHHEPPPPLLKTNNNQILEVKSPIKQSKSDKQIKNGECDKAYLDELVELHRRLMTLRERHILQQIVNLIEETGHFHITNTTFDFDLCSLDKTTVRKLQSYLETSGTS
* hit, by the source's call; & = joins results of further samples; ! = repeats disagree. A portion of the library (hit frequency here may not be typical).

SMILES | MLL AF4-AF9 inh
O=C(c1ccc(F)cc1)N1CC(=O)N2[C@@H](CO)[C@H](c3ccc(C4=CCCC4)cc3)[C@@H]2C1 | -0.1
COc1ccc2c3c([nH]c2c1)[C@H](CO)N(C(=O)Nc1cccc(F)c1)CC31CCN(S(=O)(=O)c2cccc(C)c2)CC1 | -3.3
CO[C@@H]1CN(C)C(=O)c2cc(NS(=O)(=O)c3ccc(Cl)cc3)ccc2OC[C@@H](C)N(C)C[C@@H]1C | -0.1
Cc1ccc(S(=O)(=O)Nc2ccc3c(c2)C(=O)N([C@H](C)CO)C[C@@H](C)[C@H](CN(C)C(=O)CCC(F)(F)F)OCCCC[C@@H](C)O3)cc1 | -0.1
COc1ccc(S(=O)(=O)N2[C@@H]3CNC[C@H]2C3c2ccc(-c3ccccc3OC)cc2)cc1 (some centres not stated) | 2.2&1.2
COCC(=O)N1CC(=O)N2[C@H](C1)[C@H](c1ccc(C#CC3CCCCC3)cc1)[C@@H]2CO | -1.6
O=C(Nc1ccccc1F)N1CC(=O)N2[C@H](C1)[C@@H](c1ccc(C#CC3CCCC3)cc1)[C@@H]2CO | 6.8
O=C(C[C@H]1C[C@@H]2c3cc(NC(=O)Nc4ccccc4)ccc3O[C@@H]2[C@@H](CO)O1)NCC(F)(F)F | -0.5
O=C(C[C@@H]1CC[C@@H]2[C@H](COC[C@@H](O)CN2CC2CC2)O1)NCC1CC1 | -1.3
COCC(=O)Nc1ccc2c(c1)[C@@H]1C[C@@H](CC(=O)O)O[C@H](CO)[C@@H]1O2 | 4.4
N#Cc1ccc(-c2ccc3c(c2)[C@@H]2[C@@H](CCN2C(=O)C2CCCC2)[C@H](CO)N3)cc1 | -12
C[C@@H]1CN([C@H](C)CO)C(=O)c2cc(NS(=O)(=O)c3ccc(Cl)cc3)ccc2O[C@@H](C)CCCCO[C@H]1CN(C)S(=O)(=O)c1ccc(F)cc1 | 0.2
COc1ccc2c3c([nH]c2c1)[C@H](CO)NCC31CCN(C(=O)Nc2ccccc2F)CC1 | 5.9
O=C(C[C@H]1C=C[C@H](NC(=O)CC2CC2)[C@@H](CO)O1)NCc1ccccc1 | -3.8
Cc1ccc(S(=O)(=O)Nc2ccc3c(c2)C(=O)N([C@@H](C)CO)C[C@H](C)[C@H](CN(C)Cc2ccc(C(=O)O)cc2)OCCCC[C@H](C)O3)cc1 | 0.3
O=C(CC1CC1)N1CC[C@@H]2[C@H]1c1cc(-c3ccc(F)cc3)ccc1N[C@@H]2CO | 0.8
O=C(Cc1ccccn1)N1CC(=O)N2[C@H](C1)[C@H](c1ccc(C#CC3CC3)cc1)[C@@H]2CO | 0.0
CCCC(=O)N1CC2(CN(Cc3nccs3)C2)c2c([nH]c3cc(OC)ccc23)[C@@H]1CO | 0.1
CC(C)CC#Cc1ccc([C@@H]2[C@H](CO)N3C(=O)CN(C(=O)c4cnccn4)C[C@@H]23)cc1 | -1.6
CCC(=O)N1CC(=O)N2[C@H](CO)[C@@H](c3ccc(-c4cccnc4)cc3)[C@H]2C1 | 2.0
C[C@@H]1CN([C@H](C)CO)C(=O)Cc2cc(N(C)C)ccc2O[C@H]1CN(C)CC1CC1 | 4.9
C[C@H]1CCCCO[C@H](CN(C)S(=O)(=O)c2ccc(Cl)cc2)[C@@H](C)CN([C@@H](C)CO)C(=O)c2cc(NC(=O)C3CCCCC3)ccc2O1 | -0.3
CCS(=O)(=O)N1CC(=O)N2[C@H](CO)[C@@H](c3ccc(C#CC4CCCC4)cc3)[C@H]2C1 | 7.9
CCCC(=O)Nc1ccc2c(c1)C(=O)N(C)C[C@@H](OC)[C@@H](C)CN(Cc1cncnc1)[C@H](C)CO2 | 2.3
C[C@H](CO)N1C[C@H](C)[C@H](CN(C)S(=O)(=O)c2ccc(Cl)cc2)OCc2cn(nn2)CCCC1=O | -1.2
N#Cc1ccc(-c2ccc([C@@H]3[C@@H](CO)N4C(=O)CN(C(=O)C5CCCC5)C[C@H]34)cc2)cc1 | -4.6
C[C@H]1CCCCO[C@H](CN(C)Cc2ccc3c(c2)OCO3)[C@@H](C)CN([C@@H](C)CO)C(=O)c2cc(NS(=O)(=O)c3ccccc3)ccc2O1 | 2.1
COCC(=O)NC[C@H]1N[C@H](CO)[C@@H]1c1ccc(C#CC2CCCCC2)cc1 | 2.4
COc1cccc(C#Cc2ccc([C@H]3[C@H]4CN(C(=O)C5CC5)CC(=O)N4[C@H]3CO)cc2)c1 | -2.4
C[C@@H]1CN([C@H](C)CO)C(=O)c2cc(NS(=O)(=O)c3ccc(Cl)cc3)ccc2O[C@@H]1CN(C)C(=O)Nc1cccc2ccccc12 | 2.1

Quoted at random: 6 entries already listed
SMILES | MLL AF4-AF9 inh
CC(C)CC#Cc1ccc([C@@H]2[C@H](CO)N3C(=O)CN(C(=O)c4cnccn4)C[C@@H]23)cc1 | -1.6
CCCC(=O)N1CC2(CN(Cc3nccs3)C2)c2c([nH]c3cc(OC)ccc23)[C@@H]1CO | 0.1
C[C@@H]1CN([C@H](C)CO)C(=O)Cc2cc(N(C)C)ccc2O[C@H]1CN(C)CC1CC1 | 4.9
N#Cc1ccc(-c2ccc([C@@H]3[C@@H](CO)N4C(=O)CN(C(=O)C5CCCC5)C[C@H]34)cc2)cc1 | -4.6
O=C(C[C@H]1C[C@@H]2c3cc(NC(=O)Nc4ccccc4)ccc3O[C@@H]2[C@@H](CO)O1)NCC(F)(F)F | -0.5
CCC(=O)N1CC(=O)N2[C@H](CO)[C@@H](c3ccc(-c4cccnc4)cc3)[C@H]2C1 | 2.0

Next part
SMILES | MLL AF4-AF9 inh
CN(C)CC(=O)N1CC(=O)N2[C@H](CO)[C@@H](c3ccc(/C=C/c4ccccc4)cc3)[C@H]2C1 | 18
O=C(C[C@@H]1C[C@@H]2c3cc(NC(=O)Nc4ccccc4)ccc3O[C@@H]2[C@H](CO)O1)NCC(F)(F)F | -3.1
O=C(NC1CCCCC1)N1CC(=O)N2[C@H](CO)[C@@H](c3ccc(-c4cccnc4)cc3)[C@H]2C1 | -2.4
O=C(Cc1ccncc1)N1CC(=O)N2[C@H](CO)[C@H](c3ccc(Br)cc3)[C@@H]2C1 | -1.9
O=C(c1ccccc1F)N1CC(=O)N2[C@H](CO)[C@@H](c3ccc(C#Cc4ccccc4)cc3)[C@@H]2C1 | -2.0
O=C(NC1CCCC1)N1CC(=O)N2[C@@H](CO)[C@H](c3ccc(-c4ccc(F)cc4)cc3)[C@@H]2C1 | 0.1
CC(C)C#Cc1ccc([C@H]2[C@H](CO)N3C(=O)CN(C(=O)Cc4ccccc4)C[C@@H]23)cc1 | -0.2
Cc1noc(C)c1S(=O)(=O)Nc1ccc2c(c1)C(=O)N([C@H](C)CO)C[C@H](C)[C@H](CN(C)C(=O)c1ccccc1)OCCCC[C@H](C)O2 | -10
CN(C)C(=O)c1cccc(-c2ccc([C@H]3[C@H](CO)N4C(=O)CN(C(=O)CC5CC5)C[C@@H]34)cc2)c1 | -1.4
COc1cc(CN2CC3(CN(C(C)=O)C3)c3c([nH]c4cc(OC)ccc34)[C@H]2CO)cc(OC)c1 | 1.4
CCC(=O)N[C@H]1C[C@@H]2O[C@H](CO)CC[C@@H]2O[C@@H]1CCc1ccc(-c2cccc(OC)c2)cc1 | -1.7
C[C@@H]1CN([C@@H](C)CO)C(=O)c2ccccc2-c2ccccc2CO[C@H]1CN(C)C(=O)Nc1cccc(Cl)c1Cl | -1.6
C[C@@H]1CCCCO[C@H](CN(C)Cc2ccc(C(F)(F)F)cc2)[C@@H](C)CN([C@H](C)CO)C(=O)c2cc(N(C)C)ccc2O1 | 11
C[C@@H]1CN([C@@H](C)CO)C(=O)c2cc(NC(=O)C3CCCCC3)ccc2O[C@@H](C)CCCCO[C@@H]1CN(C)S(=O)(=O)c1ccccc1 | -2.3
O=C(C1CCCC1)N1CC2(C1)[C@@H](c1ccccc1)[C@@H](CO)N2Cc1ccccc1F | 0.0
O=C(c1cccnc1)N1CCCCN2[C@H](CO)[C@@H](c3ccc(C#Cc4cccnc4)cc3)[C@@H]2C1 | -1.5
O=C([C@H]1[C@H](CO)[C@H]2Cn3c(ccc(-c4ccccc4F)c3=O)[C@@H]1N2C(=O)C1CC1)N1CCCCC1 | -2.5
Fc1ccc(-c2ccc(C3[C@@H]4CN(Cc5ccccc5)C[C@H]3N4)cc2)cc1 (some centres not stated) | 20&6.2
CCC(=O)N1CC(=O)N2[C@H](C1)[C@H](c1ccc(C#Cc3cccc(F)c3)cc1)[C@@H]2CO | -4.5
Fc1cccc(CN2[C@@H]3CNC[C@H]2C3c2ccc(-c3ccncc3)cc2)c1 (some centres not stated) | 30*!
COCC#Cc1ccc(CC[C@H]2O[C@H]3CC[C@@H](CO)O[C@H]3C[C@@H]2n2cc(C3(O)CCCC3)nn2)cc1 | -18
O=C(Nc1ccccc1)N1CC(=O)N2[C@@H](CO)[C@H](c3ccc(C#Cc4cccnc4)cc3)[C@@H]2C1 | -3.4
O=C(NC1CCCCC1)N1CC2(C1)[C@H](c1ccccc1)[C@@H](CO)N2CC1CCOCC1 | -3.4
C[C@H]1CCCCO[C@H](CN(C)S(=O)(=O)c2ccc(F)cc2)[C@@H](C)CN([C@@H](C)CO)C(=O)c2cc(NC(=O)Nc3ccc(C(F)(F)F)cc3)ccc2O1 | -4.3
COc1ccc(-c2ccc([C@@H]3[C@H]4CN(C(=O)c5ccccn5)CC(=O)N4[C@H]3CO)cc2)cc1 | -1.2
N#C[C@H]1[C@@H](c2ccccc2-c2ccccc2F)[C@H](CO)N1C(=O)c1ccccn1 | 0.6
COc1ccc2c3c([nH]c2c1)[C@H](CO)N(C(=O)Nc1ccc(F)cc1)CC31CCN(S(=O)(=O)c2cn(C)cn2)CC1 | 6.2
O=C(Nc1ccc2c(c1)OCO2)N1[C@@H]2CNC[C@H]1C2c1ccc(-c2ccncc2)cc1 (some centres not stated) | 6.5&-7.1
CN(C)C(=O)[C@H]1[C@H](CO)[C@H]2Cn3c(ccc(C4=CCCCC4)c3=O)[C@@H]1N2Cc1cccnc1 | 0.8
CCN1[C@@H]2c3ccc(-c4cccc(F)c4)c(=O)n3C[C@@H]2[C@@H](CO)[C@@H]1C(=O)OC | -4.5
O=C1CN(S(=O)(=O)c2ccccc2)C[C@@H]2[C@H](c3ccc(C#CCc4ccccc4)cc3)[C@H](CO)N12 | -3.0
O=C(C1CCC1)N1CC(=O)N2[C@H](CO)[C@@H](c3ccc(C#CCc4ccccc4)cc3)[C@H]2C1 | 0.9
C[C@@H]1CN([C@H](C)CO)C(=O)c2cc(-c3ccc(C#N)cc3)cnc2O[C@@H]1CN(C)C(=O)c1ccccc1 | -1.8
COc1ccc2c3c([nH]c2c1)[C@H](CO)N(S(C)(=O)=O)CC31CN(CC2CCOCC2)C1 | -5.4
C[C@H]1CCCCO[C@@H](CN(C)Cc2ccc3c(c2)OCO3)[C@@H](C)CN([C@@H](C)CO)C(=O)c2cc(NS(=O)(=O)c3ccc(F)cc3)ccc2O1 | 11
CNC[C@@H]1Oc2ncc(-c3ccc(OC)cc3)cc2C(=O)N([C@H](C)CO)C[C@H]1C | -1.6
CO[C@@H]1CN(C)C(=O)c2ccc(NC(C)=O)cc2OC[C@H](C)N(Cc2cncnc2)C[C@@H]1C | -1.2
CS(=O)(=O)N1C[C@H](O)COC[C@@H]2O[C@H](CC(=O)NCc3ccc(-c4ccccc4)cc3)CC[C@H]21 | 15
O=C(C1CCC1)N1C[C@@H]2N[C@H](C1)C2c1ccc(-c2ccncc2)cc1 (some centres not stated) | -1.7
COCC(=O)N1[C@H](C#N)[C@@H](c2ccccc2C2=CCCCC2)[C@@H]1CO | -0.6
O=C(C[C@@H]1C[C@@H]2c3cc(NC(=O)NC4CCCCC4)ccc3O[C@@H]2[C@H](CO)O1)NC1CCCCC1 | -5.0
C[C@@H]1CCCCO[C@@H](CN(C)Cc2ccccc2)[C@@H](C)CN([C@@H](C)CO)C(=O)c2cc(NC(=O)CCCN(C)C)ccc2O1 | 0.8
COc1cccc(C(=O)Nc2ccc3c(c2)OC[C@H](C)N(C(C)=O)C[C@@H](C)[C@H](OC)CN(C)C3=O)c1 | -2.6
CCC(=O)N1CC2(C1)CN(Cc1ccc(OC)cc1)[C@H](CO)c1[nH]c3cc(OC)ccc3c12 | -0.8
C[C@@H]1CCCCO[C@@H](CN(C)C(=O)Nc2ccccc2)[C@H](C)CN([C@H](C)CO)C(=O)c2cc(NC(=O)NC3CCCCC3)ccc2O1 | -0.4

Some of these compounds in order of the MLL AF4-AF9 inh value, ascending:
SMILES | MLL AF4-AF9 inh
COc1ccc2c3c([nH]c2c1)[C@H](CO)N(S(C)(=O)=O)CC31CN(CC2CCOCC2)C1 | -5.4
CO[C@@H]1CN(C)C(=O)c2ccc(NC(C)=O)cc2OC[C@H](C)N(Cc2cncnc2)C[C@@H]1C | -1.2
CS(=O)(=O)N1C[C@H](O)COC[C@@H]2O[C@H](CC(=O)NCc3ccc(-c4ccccc4)cc3)CC[C@H]21 | 15

Next compounds follow:
SMILES | MLL AF4-AF9 inh
Cc1ccccc1-c1ccc(C2[C@H]3CNC[C@@H]2N3S(=O)(=O)Cc2ccccc2)cc1 (some centres not stated) | -3.9
NCC[C@H]1CC[C@H](NC(=O)C2CC2)[C@@H](CO)O1 | 0.2
CCNC(=O)[C@@H]1[C@@H](CO)[C@@H]2Cn3c(ccc(-c4cccc(C(=O)N(C)C)c4)c3=O)[C@H]1N2 | -2.7
COc1ccc2c3c([nH]c2c1)[C@@H](CO)N(S(C)(=O)=O)CC31CCN(C(=O)Nc2ccccc2)CC1 | 4.0
O=C(c1ccccc1F)N1CC(=O)N2[C@H](C1)[C@@H](c1ccc(-c3cccnc3)cc1)[C@@H]2CO | -0.7
COc1cccc(C#Cc2ccc([C@@H]3[C@@H](CO)N4C(=O)CN(C(C)=O)C[C@@H]34)cc2)c1 | -7.0
O=C(NC1CCCC1)N1CC(=O)N2[C@H](CO)[C@@H](c3ccc(-c4cccc(F)c4)cc3)[C@H]2C1 | 1.6
COc1cccc(S(=O)(=O)N[C@@H]2CC[C@@H](CC(=O)NC3Cc4ccccc4C3)O[C@H]2CO)c1 | -1.2
